Vaccinia mCherry = inhibitors of vaccinia virus infection (mCherry reporter signal); 310,000 tested, 0.63% active; Vaccinia virus mCherry reporter infection, fluorescence; about a quarter of the inactives have no number; Potency, µM (top dose mostly 36.5 µM), inactives show at the top dose activity change, negative = inhibition, actives largely listed as inhibitors; AID 720579; active = well fitted inhibition curve with a large enough effect; inconclusive = small, poorly fitted or top-dose-only effect; inactive = no such curve, though single readings can be large or run the other way; tested in A549 cells; further: nearly all actives have a fitted effect of over 35% in size; inactives centre near -10
VACV Venus inh = inhibitors of vaccinia virus (Venus reporter); AID 720580; Vaccinia virus Venus reporter expression, fluorescence; Potency, µM (series often up to 36.5 µM), for inactives: at the top dose activity change, negative = inhibition, most hits filed as inhibitors; 330,000 tested, 0.46% active; active means well fitted inhibition curve with a large enough effect; inconclusive means small, poorly fitted or top-dose-only effect; inactive means no such curve, though single readings can be large or run the other way; tested in A549 cells; further: nearly all actives have a fitted effect of over 30% in size; inactives centre near -10
An asterisk follows results filed as active; i = inactive; ? = inconclusive; . = not tested or not shown; & = joins results of further samples; [ ] = dose if it differs, or a comment. On the % scale 0 is the no-effect control and ±100 the full control effect; potency means the concentration at half of the fitted maximal effect. Rows were taken by chance. About 0.87% of those tested had a hit in this group.

SMILES	Vaccinia mCherry	VACV Venus inh
O=C1OC(N2C(=O)CC[C@H]2C(=O)Nc2cccc(F)c2)c2ccccc21 (stereo partly drawn)	-5%	-10%
CCOc1ccc(CNC(=O)CCc2cn(C)c3ccccc23)cc1OC	i	2%
COc1ccc(-c2nc(CCNC(=O)c3cccs3)cs2)cc1OC	-13%	-9%
COC(=O)c1[nH]c(C)c(/C(O)=C2\C(=O)C(=O)N(CCN3CCOCC3)C2c2ccco2)c1C (stereo not drawn)	-12%	-5%
CN(C)S(=O)(=O)c1ccc(Cl)c(NC(=O)CSc2nc3ccccc3c(=O)n2CCCN2CCOCC2)c1	i	-18%
COc1cccc(CN2CCCC(CNC(=O)c3ccc(F)cc3)C2)c1OC (stereo not drawn)	-15%	3%
COc1ccc(NC(=O)c2ccc(NC(=O)CSc3nccc(=O)[nH]3)cc2)cc1	3%	-1%
N#CCCn1cc(C(=O)NCc2ccccc2)c(-c2ccccc2)n1	i	-2%
Cc1ccc(NC(=O)N(Cc2ccc3c(c2)OCO3)C2CCN(Cc3ccccc3)CC2)cc1Cl	?	?
CC(C)=CCC/C(C)=C/CC/C(C)=C/CC/C(C)=C/CC1=C(C)C(=O)c2ccccc2C1=O	-13%	-11%
CC1(C)CC(CC(=O)O)(c2ccc(Cl)cc2)CCO1 (stereo not drawn)	.	-8%
Cc1ccc(-n2ncc3c(=O)n(CC(=O)N4CCN(c5ccccc5F)CC4)cnc32)cc1C	.	-21%
Cn1c(CN2CCN(S(C)(=O)=O)CC2)nc2cc([N+](=O)[O-])ccc21	-13%	-5%
Fc1ccc(NC(=S)Nc2cccnc2)c(F)c1F	4%	2%
Cn1c(C(=O)N2CCOCC2)cnc1Sc1ncc(C(F)(F)F)cc1Cl	.	?
COC(=O)[C@@]12C[C@@H](CC(=O)NCc3ccc(OC)c(OC)c3)C(=O)N(Cc3ccc4c(c3)OCO4)C1=CCC(C)(C)C2	?	?
Cc1onc(-c2ccccc2)c1C(=O)OCC(=O)c1ccc(F)cc1	i	?
Cc1ccc2nc(-c3cc(NC(=O)c4ccc5c(c4)OCCO5)ccc3Cl)oc2c1	-12%	-9%
C[C@H](CO)N1C[C@H](C)[C@@H](CN(C)C(=O)CC2CC2)Oc2cc(Br)ccc2S1(=O)=O	-4%	-15%
N[C@@H](CCl)C(=O)O	i	-13%
COCCCNc1c2c3c(cccc3[nH]c1=O)C(=O)c1ccccc1-2	2%	.
O=C(O)CCc1nn2c3ccccc3nc2n(Cc2ccccc2)c1=O	-6%	4%
COc1ccc(/C=N/NC(=S)NCc2ccccc2)cc1OC	-8%	-12%
Cc1ccc(NC(=O)C2CCN(c3nn4c(=O)cc(C)nc4s3)CC2)cc1	15%	-7%
Cc1ccc(C(=O)N2CCCC2(C)C(=O)NCC(C)C)cc1F (stereo not drawn)	i	-8%
O=C(c1ccccc1-c1ccccc1)N1CCN(c2ccccn2)CC1	-10%	-21%
COc1cc(C(=O)NCCc2cn3ccc(C)cc3n2)cc(OC)c1OC	?	-16%
O=C(NCc1ccccc1)C(c1ccccc1)N(C(=O)c1csnn1)C1CC1 (stereo not drawn)	-6%	-12%
COc1ccccc1C1CN(Cc2cccc3nccnc23)Cc2ccccc2O1 (stereo not drawn)	-16%	-12%
O=C(NC(Cc1ccccc1)C(=O)O)/C(=C/c1cccc(Br)c1)NC(=O)c1ccco1 (stereo not drawn)	-23%	-4%
COc1cccc(CNc2ccc(F)c(Cl)c2)c1OC	-15%	-5%
O=[N+]([O-])c1cccc(-c2noc(COc3ccccc3)n2)c1	-28%	2%
CN1CCN(C(CNS(=O)(=O)c2cccs2)c2cccnc2)CC1 (stereo not drawn)	-18%	-7%
COc1ccc(N(C(=O)c2ccco2)C(C(=O)NC2CCCC2)c2ccccc2)cc1 (stereo not drawn)	-10%	-2%
O=C(OCC(=O)c1c[nH]c2ccccc12)c1ccc(F)c(S(=O)(=O)N2CCOCC2)c1	-14%	-5%
O=C(CN1C2CCCC1CC(NC(=O)C1CCCCC1)C2)Nc1ccccc1C(F)(F)F (stereo not drawn)	i	-18%
O=C(CSc1nnc(NC(=O)c2ccc(F)cc2)s1)NCc1ccco1	4%	-2%
CN1CCN(/N=C/c2ccc(N(C)c3ccccc3)cc2)CC1	-2%	-5%
CC(C)CC1C(=O)N(Cc2cn(CCC3OCCCO3)nn2)CCS(=O)(=O)N1Cc1ccc(-c2ccc(Cl)nc2)cc1 (stereo not drawn)	-11%	?
O=C(Cc1ccc(Cl)c(Cl)c1)Nc1cccnc1	9%	7%
CC(OC(=O)CN1C(=O)NC2(CCCC2)C1=O)C(=O)c1ccc(C(C)(C)C)cc1 (stereo not drawn)	-24%	-18%
O=C(COC(=O)/C=C/c1cccc(F)c1)Nc1ccccc1	-14%	-18%
O=C(c1ccc(Cl)c(Cl)c1)N1CCC(O)(CN2CCOCC2)CC1	-4%	-15%
O=C(c1cc(F)c(F)cc1Cl)N1CCCCC1	.	?
Clc1ccc(-c2nc3sccn3c2/C=N/OCc2ccc(Cl)c(Cl)c2)cc1	-10%	-7%&-12%
CC(=O)Oc1cccc(C(=O)Nc2ccc(NC(=O)c3cccs3)cc2)c1	-7%	-18%
CC(=O)c1cccc(NC(=O)c2cc(C)nc3c2c(C)nn3-c2cccc(Cl)c2C)c1	-16%	-19%
Cc1ccccc1CC1(CO)CCCN(C(=O)c2ccc(F)cc2)C1 (stereo not drawn)	-3%	-10%
Cc1occc1C(=O)NCCCc1ccccc1	.	-15%
CC(C)[C@H](NC(=O)[C@@H]1Cc2c([nH]c3ccccc23)C2c3ccccc3C(=O)N21)C(=O)NCC1CCCO1 (stereo partly drawn)	1%	4%
Cn1c(=O)n(Cc2ccccc2)c(=O)c2c1nc1n2CCS1	-11%	-5%
CCN(CC)P(=O)(Nc1ccc(Br)cc1)c1c(C)nn(CCC#N)c1NC(=O)c1ccc(Cl)cc1 (stereo not drawn)	-13%	-15%
CCOC(=O)N1C(=O)NC(=O)C1c1ccc(Cl)cc1 (stereo not drawn)	i	-3%
Cc1cc(=O)oc2cc(O)c(N=Nc3ccccc3)cc12	-21%	-6%
Cc1cccc(NC(=O)C(=O)NCCCN2CCOCC2)c1	-6%&11%	-12%&3%
Cn1nc(C(C)(C)C)cc1C(=O)N1CCCC(c2cc(C(=O)Nc3ccccc3Cl)no2)C1 (stereo not drawn)	30%	-5%
CCc1ccc(OCC(=O)N(Cc2ccco2)Cc2ccccc2Cl)cc1	-14%	-7%
COc1ccc(-c2nn(-c3ccccc3)cc2CNC[C@H]2O[C@@H](n3ccc(=O)[nH]c3=O)[C@H](O)[C@@H]2O)cc1	12%	-1%
CCN1CCc2c(sc(NC(=O)c3cc4ccccc4cc3OC)c2C(N)=O)C1	14µM*	?
CC1CCCC(NC(=O)Cn2cc(Br)ccc2=O)C1C (stereo not drawn)	i	-4%
Next compounds.
SMILES	Vaccinia mCherry	VACV Venus inh
CC(=O)N1CCCC1c1nc2ccccc2n1Cc1c(F)cccc1Cl (stereo not drawn)	-5%	5%
CCC(=O)C1=C(c2ccc(OC)c(OC)c2)N(C(=O)CC)n2c(nnc2-c2ccc(C)cc2)S1	-4%	-6%
Cc1ccc(S(=O)(=O)N2CCN(C(=O)[C@H](Cc3ccccc3)NC(=O)c3ccco3)CC2)cc1C	-14%	-24%
O=C(Cn1nnc(-c2ccccc2F)n1)NCc1ccco1	-6%	-4%
COc1ccccc1CN1CCC(CNC(=O)c2cnn(-c3ccc(Cl)cc3)c2C2CCN(C(=O)OC(C)(C)C)CC2)CC1	?	-23%
CCOC(=O)c1csc(NC(=O)CSc2nnnn2-c2ccc3c(c2)OCCO3)n1	.	-24%
COc1cc(OC)c(NC(=O)Cn2cnc3sc(C)c(S(=O)(=O)N4CCN(C)CC4)c3c2=O)cc1Cl	i	-16%
O=C1CSC(c2ccccc2)N1c1ccc([N+](=O)[O-])cc1 (stereo not drawn)	-13%	-1%
CC(C)N(C(=S)Nc1ccc(S(=O)(=O)N2CCOCC2)cc1)c1ccccc1	-14%	11%
Cc1ccc2c(c1C)-c1c(ccc(C)c1C)C(=O)C2=O	?	10µM*
Cc1ccccc1N1Cc2ccccc2C1	-7%	0%
Cc1cccn2c(=O)nc(SCC(=O)N3CCC(Cc4ccccc4)CC3)nc12	?	-15%
O=C(O)c1ccc(SCc2cnc(Cl)s2)cc1	i	-11%
COCCNC(=S)N1CCN(c2cccc(C)c2C)CC1	-10%	-5%
CCc1ccc2[nH]c(=O)c(CN(Cc3ccccc3)Cc3nnnn3C(C)(C)C)cc2c1	?	-30%
CCCn1nc(C(=O)OCC(=O)c2ccccc2)c2ccccc2c1=O	i	-2%
CC(=O)c1ccc(N(CC(=O)NC2CCCCC2)C(=O)CNC(=O)c2ccco2)cc1	-1%	-9%
COc1cccc(C(=O)Nc2sc3c(c2C(=O)O)CCCC3)c1	?	?
COc1ccc(CN2CCC(n3nccc3NC(=O)CCOc3ccccc3)CC2)cc1C	?	?
O=C(c1ccc(Br)o1)N1CC=C(c2ccccc2)CC1	-9%	-20%
O=C(Nc1ccccc1N1CCOCC1)C1CCN(S(=O)(=O)c2cccc(C(F)(F)F)c2)CC1	-2%	-22%
C/C=C/c1ccc(OCC(=O)OCc2csc(CC(=O)Nc3ccccc3C)n2)c(OC)c1	-13%	-10%
CCOc1ccccc1NC(=O)c1c(C)cc(C)nc1SCC(=O)c1cccc(OC)c1	-12%	-10%
Nc1nc(N2CCOCC2)nc2ccccc12	-2%	-22%
COc1ccc(C(=O)N2CCN=C2SCc2cccnc2)c(OC)c1	i	-4%
CCOC(=O)N1CCN(C(=O)c2cnc3n(c2=O)CCS3)CC1	-12%	-5%
CCCN1CNc2c(c(=O)[nH]c(=S)n2CCc2ccccc2OC)C1	-10%	-13%
COC(=O)c1c(-c2cccs2)csc1NC(=O)c1ccc(C(C)(C)C)cc1	1%[7.34 µM]	-3%[7.34 µM]
Cc1c(NC(=O)c2ccc(CC(C)C)o2)c(=O)n(-c2ccccc2)n1C	i	0%
CCOC(=O)C1C2NC(=O)N(Cc3ccccc3)C1(C)Oc1c(OC)cccc12 (stereo not drawn)	i	-9%

Quoted from above (13 entries):
SMILES	Vaccinia mCherry	VACV Venus inh
CCc1ccc2[nH]c(=O)c(CN(Cc3ccccc3)Cc3nnnn3C(C)(C)C)cc2c1	?	-30%
CCCn1nc(C(=O)OCC(=O)c2ccccc2)c2ccccc2c1=O	i	-2%
CC(=O)c1ccc(N(CC(=O)NC2CCCCC2)C(=O)CNC(=O)c2ccco2)cc1	-1%	-9%
COc1cccc(C(=O)Nc2sc3c(c2C(=O)O)CCCC3)c1	?	?
COc1ccc(CN2CCC(n3nccc3NC(=O)CCOc3ccccc3)CC2)cc1C	?	?
O=C(c1ccc(Br)o1)N1CC=C(c2ccccc2)CC1	-9%	-20%
O=C(Nc1ccccc1N1CCOCC1)C1CCN(S(=O)(=O)c2cccc(C(F)(F)F)c2)CC1	-2%	-22%
C/C=C/c1ccc(OCC(=O)OCc2csc(CC(=O)Nc3ccccc3C)n2)c(OC)c1	-13%	-10%
CCOc1ccccc1NC(=O)c1c(C)cc(C)nc1SCC(=O)c1cccc(OC)c1	-12%	-10%
Nc1nc(N2CCOCC2)nc2ccccc12	-2%	-22%
COc1ccc(C(=O)N2CCN=C2SCc2cccnc2)c(OC)c1	i	-4%
CCOC(=O)N1CCN(C(=O)c2cnc3n(c2=O)CCS3)CC1	-12%	-5%
CCCN1CNc2c(c(=O)[nH]c(=S)n2CCc2ccccc2OC)C1	-10%	-13%

(continued)
SMILES	Vaccinia mCherry	VACV Venus inh
CC1(C)CC(NCCC(c2ccccc2)c2ccco2)CCO1 (stereo not drawn)	-9%	2%
O=C(CN1C(=O)C(c2ccccc2)Oc2cccnc21)NCc1ccccc1F (stereo not drawn)	-2%[7.34 µM]	15%[7.34 µM]
Cc1cccc(N2CCN(S(=O)(=O)c3ccc4c(c3)NC(=O)CO4)CC2)c1C	i	-13%
C#CCOCCOCCOCCNc1nc(N2CCN(C(=O)[C@H]([C@@H](C)CC)n3cc(CCCCN)nn3)CC2)nc(N2CCN(C(=O)[C@H](CCCCN)n3cc(CC(C)O)nn3)CC2)n1 (stereo partly drawn)	i	-8%
Cc1[nH]c2ccc(C(=O)O)cc2c1C	?	-11%
CCNC(=O)c1ccc(C2SCC(=O)N2Cc2ccco2)cc1 (stereo not drawn)	-5%	3%
O=C(CSc1nc2ccccc2c(=O)n1-c1ccccc1)c1c[nH]c2ccccc12	?	?
CCOc1ccc(/C=N/Nc2cc(N3CCOCC3)ncn2)c(O)c1	?	?
COc1ccc2c(CN3CCN(S(=O)(=O)c4cccs4)CC3)cc(=O)oc2c1	-21%	-7%
Cc1cc(C)cc(NC(=O)N2CCCC2C(=O)Nc2ccc(-n3cnnn3)cc2)c1 (stereo not drawn)	i	-12%
CCN(CC(=O)Nc1cc(C)on1)CC(=O)Nc1ccccc1C(F)(F)F	-9%	-23%
COc1ccc(-c2cc(C(F)(F)F)n3nc(C(=O)Nc4cc(Cl)cc(Cl)c4)cc3n2)cc1	-7%	-11%
CCCCn1c(NC(C)CC)nc2c1c(=O)[nH]c(=O)n2C (stereo not drawn)	-3%[1.46 µM]	-15%
COC(=O)c1c(C)nc2nonc2c1N	i	-13%
COc1ccc(NC(=O)CN(C)C(=O)CCCN2C(=O)c3cccc4cccc(c34)C2=O)cc1	-20%	-22%
Cc1c(C(=O)NCc2cccnc2)oc2ccc(S(=O)(=O)N3CCC4(CC3)OCCO4)cc12	-21%	-13%
